VACV mCherry inh = qHTS for Stage-Specific Inhibitors of Vaccinia Orthopoxvirus: mCherry Reporter Primary qHTS; Vaccinia virus mCherry reporter infection, fluorescence; about a quarter of the inactives have no number; Potency, µM (doses to about 36.5 µM), for inactives: at the top dose activity change, negative = inhibition, most hits filed as inhibitors; hit rate 0.63% among 310,000; AID 720579, 2013; active = well fitted inhibition curve with a large enough effect; inconclusive = small, poorly fitted or top-dose-only effect; inactive = no such curve, though single readings can be large or run the other way; tested in A549 cells; also: nearly all actives have a fitted effect of over 35% in size; inactives centre near -10
VACV Venus inh = qHTS for Stage-Specific Inhibitors of Vaccinia Orthopoxvirus: Venus Reporter Primary qHTS; Vaccinia virus Venus reporter expression, fluorescence; Potency, µM (highest dose often 36.5 µM), for the others: at the highest dose activity change, negative = inhibition, actives largely listed as inhibitors; hit rate 0.46% among 330,000; active means well fitted inhibition curve with a large enough effect; inconclusive means small, poorly fitted or top-dose-only effect; inactive means no such curve, though single readings can be large or run the other way; tested in A549 cells; also: nearly all actives have a fitted effect of over 30% in size; inactives centre near -10
* = called active by the depositor; i = inactive; u = inconclusive; x = not tested or not shown; [ ] = dose if it differs, or a comment. % is scaled to controls: 0 for no effect and ±100 for the full control effect; potency is read from the fitted curve at half-maximal effect.

Every second line gives: VACV Venus inh	VACV mCherry inh
> CCCC12CN3CC(CCC)(CN(C1)C3c1ccc(OCc3ccccc3)cc1)C2=O (stereo not given)
    -2%	-3%
> O=C(c1ccc(Cl)c(F)c1F)N1CCCC1
    -17%	-19%
> COc1cc(/C=C2\C=Cc3ccccc32)cc(OC)c1OC
    -7%	-7%
> Nc1nc(NCc2ccco2)nc(N2CCCCCC2)c1[N+](=O)[O-]
    -28%	u
> CCOC(=O)C1CCCN(C(=O)c2cc(-c3ccc(C)cc3)nc3ccccc23)C1 (stereo not given)
    -7%	-15%
> Cc1ccc2nc(CSc3nnc(Cc4cccs4)n3C3CCCCC3)cc(=O)n2c1
    -12%	-7%
> Cc1ccc(S(=O)(=O)Cn2nnnc2C(CC(C)C)N2CCN(c3ccc(F)cc3)CC2)cc1 (stereo not given)
    -18%	-25%
> CCn1cc(C(=O)NCCCOC)c(=O)c2cc(S(=O)(=O)N3CCC(C)CC3)ccc21
    -15%	-29%
> CC(C)CCn1c(NCCN(C)C)nc2c1c(=O)[nH]c(=O)n2C
    -14%	-14%[1.46 µM]
> O=C(O)c1ccc(Nc2nc(-c3cccnc3)cs2)cc1
    -15%	-9%
> COc1ccc(-c2onc(C)c2C)cc1S(=O)(=O)N1CCC(C)CC1
    u	i
> Cc1ccc(S(=O)(=O)/C(C#N)=C/c2c[nH]c3ccccc23)cc1
    -21%	-18%
> CCc1ccc(NC(=O)CN(C)S(=O)(=O)c2ccc3c(c2)c(=O)n(C)c(=O)n3C)cc1
    2%	-13%
> CCc1nnc(SCCSc2nnc(CC)n2N)n1N
    -9%	-2%
> O=C1NC(=O)C2(CCc3ccccc32)N1 (stereo not given)
    -5%	x
> COc1ccc(C2=NO[C@@](CC(=O)O)(C(=O)Nc3ccc4c(c3)OCCO4)C2)cc1
    6%	-9%
> COc1cccc(CN2CCNC(=O)C2CC(=O)N(C)Cc2cnccn2)c1OC (stereo not given)
    -14%	-15%
> C=Cn1cc(CNC[C@H]2O[C@@H](n3cc(C)c(=O)[nH]c3=O)C[C@@H]2O)c(C)n1
    -8%	-8%
> CN(C)c1cc(-c2ccccc2)nc(-c2ccccc2)n1
    -5%	-14%
> COC(=O)C1=C(c2c(C)noc2C)C[C@@H]2CC[C@H]1N2C(=O)NCCOc1ccccc1
    -4%	i
> COC(=O)CN(c1ccc2c(c1)OCO2)S(C)(=O)=O
    -13%	-11%
> CCCCNC(=O)c1cn(-c2ccc(OCC)cc2)c(=O)c2cc(OC)c(OC)cc12
    -9%	-15%
> C=CCN(CC=C)S(=O)(=O)c1ccc(C(=O)Nc2nc3c(s2)CCc2ccccc2-3)cc1
    -16%	u
> O=C(NCCc1nc2ccccc2n1CCCOc1ccc(Cl)cc1)C1CCCCC1
    -9%[7.34 µM]	-13%[7.34 µM]
> COc1ccc(CNCc2c(C(=O)O)n(Cc3ccc(F)cc3)c3cc(C)ccc23)cc1OC
    -18%	-12%
> Cc1sc2ncn(-n3c(C)ccc3C)c(=O)c2c1C
    u	x
> CCN(Cc1ccncc1)C(=O)CCc1ccccc1
    -10%	-3%
> COc1cc(NC(=O)COC(=O)CO/N=C(\C)c2ccc3c(c2)OCO3)cc(OC)c1OC
    -23%	-26%
> Cc1cccc(OC2CCN(Cc3nc(CC4CC4)no3)CC2)c1
    -16%	-24%
> O=C(Nc1ccc(N2CCOCC2)cc1)C1=NN(c2ccccc2)C(=O)CC1
    -6%	-15%
> C=CCNC(=S)Nc1ccc(F)cc1F
    -10%	i
> COc1ccccc1N1CCN(C(=O)C(=O)N/N=C/c2ccccc2F)CC1
    -5%	i
> O=C(COc1cccc(Cl)c1)NCc1ccccc1
    -11%	i
> OC1(c2cccc(F)c2)CCN(Cc2ccncc2)CC1
    -1%	i
> CC(C)Cn1c(-c2ccc(C#N)cc2)nc2c1c(=O)[nH]c(=O)n2CC(C)C
    -16%	x
> CCS(=O)(=O)N1CCN(C(=O)c2cccc3ccccc23)CC1
    -14%	i
> CCC1CCCCN1C(=O)CSc1nc2c(c(=O)n(C)c(=O)n2C)n1C (stereo not given)
    4%	6%
> CCCCNc1c(-c2cc3ccccc3o2)nc2nc(C)cc(C)n12
    25%	-10%
> COc1ccc(Br)cc1C1SCC(=O)Nc2c1c(C)nn2-c1ccccc1C (stereo not given)
    -19%	-26%
> O=[N+]([O-])c1cnc2ccc3ccccc3c2c1
    -27%	u
> CS(=O)(=O)N(CCc1ccccc1)CC(=O)NCc1ccc2c(c1)OCO2
    -20%	x
> Cc1noc(C)c1NC(=O)N(C)C[C@H]1Oc2c(NC(=O)NC(C)C)cccc2C(=O)N([C@H](C)CO)C[C@@H]1C
    -11%	i
> O=C(Nc1cc(Oc2ccc(Cl)cc2)cc([N+](=O)[O-])c1)c1ccco1
    -26%	-28%
> CC1CCN(C(=O)c2ccc(-c3ccccc3Cl)o2)CC1
    -8%	i
> O=C(Cc1csc(Nc2nc(=S)[nH]c3ccccc23)n1)NCCCN1CCN(c2cccc(Cl)c2)CC1
    -21%	-26%
> Cc1noc(C)c1Cc1c(Cl)cccc1Cl
    9%	x
> CC(C)N(C(=O)CN1C(=O)C(=O)c2ccccc21)c1ccccc1
    -3%	-24%
> Cc1cc2nc(SCC(=O)Nc3ccccc3C(=O)O)[nH]c2cc1C
    -13%	-4%
> COc1ccc2nc(SCC(=O)Nc3ccc4c(c3)CCC4)[nH]c2c1
    -11%	-22%
> Cc1cccc(NC(=S)NCc2ccc3c(c2)OCO3)c1
    -7%	i
> CCO[C@H]1OC(C(N)=O)=C[C@@H](C(C)(C)C)[C@@H]1CCCO
    -5%	i
> O=C(O)CN1C(=O)NC2NC(=O)NC21 (stereo not given)
    -5%	0%
> O=C(NC1=NCCS1)c1ccc([N+](=O)[O-])cc1Cl
    -16%	-12%
> Cc1ccc(NS(=O)(=O)c2ccc3c(c2)NC(=O)CCS3)c(Cl)c1
    -11%	-5%
> Cc1cc(NC(=O)CCc2nc3cccnc3n2Cc2cccs2)ccc1Br
    -4%	-7%[7.34 µM]
> COc1cc(CNC(=O)Nc2nnc([C@H]3C[C@H](O)[C@@H](CO)O3)s2)cc(OC)c1OC
    7%	2%
> Cc1ccc(N(CC(=O)N/N=C/c2cc(C)n(-c3ccccc3C)c2C)S(C)(=O)=O)cc1
    -11%	-9%
> O=C1Cc2cc(O)ccc2O1
    18%	i
> Cc1nc(C)c(-c2nnc(-c3ccc(C(C)(C)C)cc3)o2)cc1C(=O)NN
    -27%	-22%
> Cc1cc(C)cc(OCC(=O)OC(C)C(=O)Nc2c(C)n(C)n(-c3ccccc3)c2=O)c1 (stereo not given)
    -16%	-13%

Other results:
Every second line gives: VACV Venus inh	VACV mCherry inh
> Cc1ccc(-n2cc(CN(C)CCc3cn[nH]c3)c(-c3cccc(C)c3)n2)cc1
    12%	i
> CN(C(=S)NC(=O)c1ccc(Cl)cc1)C1CCCCC1
    -16%	-13%
> COC(=O)C1C2c3ccccc3OC1(C)N=c1s/c(=C/c3cn(C)nc3C)c(=O)n12 (stereo not given)
    -27%	-4%
> Cc1ccc(NC(=O)CN2C(=O)c3cccnc3Oc3ccc(Cl)cc32)cc1
    -13%	-6%
> COc1ccc(S(=O)(=O)N2CCOCC2)cc1NC(=O)CCCOc1ccc(C(C)=O)cc1
    -10%	i
> Cc1cccc(-c2nc(CS(=O)CC(=O)NC3CCCCC3)c(C)o2)c1 (stereo not given)
    -6%	-18%
> C[C@@H]1CN([C@@H](C)CO)C(=O)CCCn2nncc2CO[C@@H]1CN(C)C(=O)Oc1cccc2ccccc12
    -11%	-22%
> Cc1csc(SCC(=O)Nc2cccc(S(=O)(=O)N3CCOCC3)c2)n1
    -8%	i
> O=C(Nc1cccc(C(=O)O)c1)/C(=C/c1ccc2c(c1)OCO2)NC(=O)c1cccc(Br)c1
    3%	-2%
> CCCC(=O)Nc1ccc(S(=O)(=O)N2CCCC2)cc1
    -19%	-13%
> Cc1nc(-c2ccc(F)cc2)c(CC(=O)N(C)CC(=O)Nc2ccccc2Cl)s1
    -15%	-25%
> O=C1/C(=C\c2ccccc2)CCC/C1=C/c1ccccc1
    -1%	-24%
> COc1ccc(N2c3ccccc3CN(Cc3ccccc3)[C@@H](C)[C@H]2Cc2c(C)cccc2C)cc1
    -2%	-24%
> Nc1c(C(=O)Nc2ccc(Br)cc2)sc2nc(N3CCOCC3)c3c(c12)CCCC3
    u	-21%
> CCOC(=O)c1ccc2c(c1)nc(COc1ccc3ccccc3c1)n2CC
    -15%	-29%
> COc1ccccc1NC(=S)N1CCOCC1
    -6%	-11%
> Cc1csc(SC(C)C(=O)NCC2CCCO2)n1 (stereo not given)
    -9%	-6%
> CCOP(=O)(OCC)c1nc(-c2cccc3ccccc23)oc1NCc1ccc(OC)cc1
    -23%	-11%
> CC(=O)N1CCc2cc(Br)cc(S(=O)(=O)N3CCC(C(=O)Nc4ccc(C(C)C)cc4)CC3)c21
    -29%	-27%
> COc1cc(C)c(Cl)cc1S(=O)(=O)NCCCN1CCOCC1
    -11%	i

In another format: entries from further up
O=C1/C(=C\c2ccccc2)CCC/C1=C/c1ccccc1
  VACV Venus inh = -1% | VACV mCherry inh = -24%

COc1ccc(N2c3ccccc3CN(Cc3ccccc3)[C@@H](C)[C@H]2Cc2c(C)cccc2C)cc1
  VACV Venus inh = -2% | VACV mCherry inh = -24%

Nc1c(C(=O)Nc2ccc(Br)cc2)sc2nc(N3CCOCC3)c3c(c12)CCCC3
  VACV Venus inh = u | VACV mCherry inh = -21%

(next part)
Every second line gives: VACV Venus inh	VACV mCherry inh
> COc1ccc(N2CCN(CCc3ccncc3)CC2)cc1
    -11%	-17%
> CCOc1ccccc1N(C)S(=O)(=O)c1ccc2c(c1)CC(C)N2C(=O)C1CC1 (stereo not given)
    -17%	-12%
> COc1cccc(COC(=O)C2CC(=O)N(Cc3ccco3)C2)c1OC (stereo not given)
    14%	0%
> O=C(CCCn1c(=O)oc2ccccc21)N1CCN(c2ccc(F)cc2)CC1
    4%	22%
> CCOC(=O)C(C)n1cnc2c1c(=O)[nH]c(=O)n2C (stereo not given)
    -6%	-14%
> COC(=O)c1cc(NC(=O)c2nn(C)c3c2CSc2ccccc2-3)cc(C(=O)OC)c1
    -4%	-14%
> CC(C)Oc1cccc(C(=O)C2CCCN(Cc3cccn3-c3ccccn3)C2)c1 (stereo not given)
    -6%	-5%
> CC(=O)NCCc1ccc(S(=O)(=O)Nc2cccnc2)cc1
    -12%	i
> CC12CN3CCN(C1)CC(C)(C3)C2=NN
    -9%	0%
> CCC(C(=O)Nc1cccc(C#N)c1)n1nc(-c2ccccc2)ccc1=O (stereo not given)
    -9%	-12%
> CCOc1ccc(NC(=O)CSc2nnc(CNC(=O)C34CC5CC(CC(C5)C3)C4)n2CC)cc1
    -6%	1%
> COc1ccc([C@H]2CC(=O)C=C(c3ccc(C(=O)O)cc3)C2)cc1OC
    -6%	-22%
> Cc1ccc(Cl)cc1NC(=O)C(NS(=O)(=O)c1cccs1)c1ccccc1 (stereo not given)
    -8%	-14%
> O=C(COc1ccccc1)Nc1ccccc1N1CCN(c2ccccc2)CC1
    -15%	i
> CCOc1ccc(S(=O)(=O)Nc2ccc(S(=O)(=O)N3CCOCC3)cc2)cc1
    -7%	x
> CC(=O)c1cccc(NS(=O)(=O)c2c(C(=O)N3CCCCCC3)c(C)n(C)c2C)c1
    -11%	-9%
> Cc1cccc(C(=O)NC(=S)Nc2c(C)n(C)n(-c3ccccc3)c2=O)c1
    -18%	-3%
> O=C(CSc1ncnc2sc3c(c12)CCCC3)NC1CCS(=O)(=O)C1 (stereo not given)
    -17%	-17%
> CC1Cn2c(C(=O)NCc3ccccc3Cl)cc3cccc(c32)S1 (stereo not given)
    -13%	-20%
> O=C(Nc1ccon1)c1cccc(C(F)(F)F)c1
    -4%	-1%

Filtered by structure, the compounds so far containing a furan ring, fused or not (five)
Every second line gives: VACV Venus inh	VACV mCherry inh
> Nc1nc(NCc2ccco2)nc(N2CCCCCC2)c1[N+](=O)[O-]
    -28%	u
> CCCCNc1c(-c2cc3ccccc3o2)nc2nc(C)cc(C)n12
    25%	-10%
> O=C(Nc1cc(Oc2ccc(Cl)cc2)cc([N+](=O)[O-])c1)c1ccco1
    -26%	-28%
> CC1CCN(C(=O)c2ccc(-c3ccccc3Cl)o2)CC1
    -8%	i
> COc1cccc(COC(=O)C2CC(=O)N(Cc3ccco3)C2)c1OC (stereo not given)
    14%	0%

Next part
Every second line gives: VACV Venus inh	VACV mCherry inh
> Cc1cc(Cl)c(S(=O)(=O)Nc2ccc3c(c2)OCCO3)cc1OCC(N)=O
    -11%	-15%
> COc1ccc(CNC(=O)C(CCSC)NS(=O)(=O)c2ccccc2F)cc1 (stereo not given)
    -2%	-3%
> Cc1nn(C)c(C)c1CN(C)C(=O)c1cc2nc(-c3ccco3)cc(C(F)(F)F)n2n1
    -30%	x
> COc1ccc(-c2ccc(SCC(=O)N3CC(=O)Nc4ccccc43)nn2)cc1
    -14%	-8%
> COc1ccc(/C=C/c2c(-c3ccccc3OC)sc3ccccc23)cc1OC
    -5%	u
> COc1ccccc1/C=C/C=N/n1c(-c2ccc(Cl)cc2)n[nH]c1=S
    -5%	-23%
> O=C(Nc1cc(F)cc(F)c1)c1ccc(NCCCN2CCCCCC2)c([N+](=O)[O-])c1
    u	-14%
> O=C(NNC1CC(=O)N(c2ccc(Br)cc2)C1=O)c1cccnc1 (stereo not given)
    -11%	-6%

Screens (PubChem)
